CSC inhib: blocks cancer stem cells. cancer stem cell-like cells viability, luminescence. inhibition, % at 7.5 µM. actives 1.1% (n = 300,000);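 active = mean at 75% or more and at least half the replicates too; tested in HMLE shEcad cells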;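 also: 0% = median of negative and 100% = median of positive control wells; the first replicate is given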
Yeast UUG start: yeast start codon fidelity modulation; S. cerevisiae UUG-firefly luciferase reporter, luminescence/redox ratio; AID 602363; activity score, % at 18.7 µM; actives 0.13% (n = 350,000);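 active = replicate mean at a twofold rise or more, about +100% in these data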;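 also: firefly luciferase made from a UUG start codon reports start codon fidelity; reporter light over untreated wells divided by growth signal over untreated wells; some hits fall short of that in this replicate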
eIF4H FP inh: inhibitors of RNA binding by human eIF4H; Q15056; eIF4H fluorescence polarization binding assay; inhibition, % at 35 µM; actives 0.94% (n = 290,000); AID 2012;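 active = 50% or more with normal probe brightness, or confirmed in later tests; about a fifth of its hits are not listed in these tables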;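 also: calls also rest on retests at 20 µM and on dose response follow-up; 0% = protein and probe with vehicle and 100% = probe without protein; strong numbers were not always called active; many hits fall short of the cut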
Rce1 inh: yeast Ras-converting enzyme inhibition; Q03530; yeast membranes, quenched prenylated peptide cleavage fluorescence; calls only; actives 0.27% (n = 290,000); AID 2563;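 active = fall in fluorescence gain of 50% or more versus controls, with final raw signal at or below 3038400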;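 also: plate controls were neutral control wells for no effect and wells lacking membranes for full effect; tested at 10 µM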
Env fusion inh: inhibitors of HIV Env-mediated cell fusion; AID 651610; HeLa-JRFL Env/CEM21 cell fusion, luciferase; inhibition, % at 12.3 µM; actives 1.1% (n = 360,000);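 active = mean replicate inhibition score of at least 50 and every replicate individually at or above 50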;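 also: 0% = plate neutral controls and 100% = maraviroc near 300 nM; one replicate is shown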
PABP FP inh: PABP-poly(A) binding inhibition. P11940. PABP-poly(A) RNA binding, fluorescence polarization. inhibition, % at 35 µM. actives 1% (n = 290,000). AID 2014;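 active = 50% or more with normal probe brightness, or confirmed in later tests; about a fifth of its hits are not listed in these tables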;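 also: calls also rest on retests at 20 µM and on dose response follow-up; controls were probe without protein and protein plus probe with vehicle; some compounds called inactive have numbers as strong as hits; many hits fall short of the cut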
Target sequence (P11940 whole entry, looked up): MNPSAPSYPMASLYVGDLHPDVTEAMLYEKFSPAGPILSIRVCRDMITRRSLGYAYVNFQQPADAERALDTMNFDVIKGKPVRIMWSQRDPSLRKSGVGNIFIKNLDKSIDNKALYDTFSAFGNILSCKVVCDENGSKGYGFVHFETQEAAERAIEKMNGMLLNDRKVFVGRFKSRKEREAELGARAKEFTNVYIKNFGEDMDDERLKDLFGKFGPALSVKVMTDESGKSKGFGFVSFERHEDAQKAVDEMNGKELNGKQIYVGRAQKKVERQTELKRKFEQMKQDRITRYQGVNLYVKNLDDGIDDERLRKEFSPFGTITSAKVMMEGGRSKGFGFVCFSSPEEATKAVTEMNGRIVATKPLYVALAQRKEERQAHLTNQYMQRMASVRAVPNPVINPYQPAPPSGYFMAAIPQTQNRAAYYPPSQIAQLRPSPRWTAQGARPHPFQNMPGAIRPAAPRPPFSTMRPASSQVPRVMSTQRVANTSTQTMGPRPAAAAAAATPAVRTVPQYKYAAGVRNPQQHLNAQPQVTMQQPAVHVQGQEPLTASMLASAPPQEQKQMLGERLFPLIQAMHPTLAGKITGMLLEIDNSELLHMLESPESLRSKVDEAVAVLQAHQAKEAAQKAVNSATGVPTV
MT1-MMP act inh: blocks activation of human MT1-MMP; actives 0.061% (n = 360,000); HT1080 RFP-PRO-GFP cells, GFP/RFP ratio fluorescence, overnight; percent of plate control window, DMSO zero; AID 651647; GFP/RFP ratio change, % at 20 µM; P50281;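 active = GFP/RFP ratio change of at least 30% with cell ATP level not reduced by more than half and red fluorescence within 50% of control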; also: strong numbers were not always called active
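Compound: 20 µM single dose, 1% DMSO / System: HT1080 RFP-PRO-GFP cells / Controls: DMSO and RFP-L50D-GFP cell wells / Read-out basis: GFP/RFP fluorescence ratio / Schedule: overnight compound exposure at 37 °C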
MT1-MMP act inh RFP: further read-out of MT1-MMP act inh, marked with its call; RFP signal change, %; measured here: RFP expression control read;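 0 = vehicle wells; hits needed this value within 50% of zero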
Starred values were filed as active, the others as inactive; i = inactive; nt = no result given.

SMILES	CSC inhib	Yeast UUG start	eIF4H FP inh	Rce1 inh	Env fusion inh	PABP FP inh	MT1-MMP act inh	MT1-MMP act inh RFP
CN1C(=O)C2(C(C#N)=C(N)Oc3n[nH]c(-c4ccc(Cl)cc4)c32)c2ccccc21 (stereo unspecified)	-9	-10	-4	i	nt	-9	0	4
C=CCc1cccc(CNc2cnc3ccccc3c2)c1O	-8	-4	-11	i	-8	6	7	-25
NC(=O)CC[C@@H]1NC(=O)[C@H](CO)NC(=O)c2cc([N+](=O)[O-])cc(I)c2NCC[C@@H](C(N)=O)NC(=O)[C@H](Cc2ccc(O)cc2)NC1=O	-10	nt	9	i	nt	19	nt	nt
COc1ccc(S(=O)(=O)NCC(=O)N(CC(=O)NCc2ccco2)Cc2ccccc2)cc1	-1	-17	-6	i	3	6	-5	0
COc1ccc(-c2nc3n(n2)C(c2ccccc2Cl)C(C(N)=O)=C(C)N3)cc1 (stereo unspecified)	6	-1	-4	i	-32	-4	-1	1
Cc1ccc(N2C(=O)C3CC3C2=O)cc1 (stereo unspecified)	-6	-10	-4	i	2	5	-2	-1
O=C(CCN1C(=O)C2C3C=CC(C3)C2C1=O)NCCc1ccccc1 (stereo unspecified)	-8	-23	-3	i	nt	8	4	4
CC(CC(=O)N(C)c1c(N)n(Cc2ccccc2)c(=O)[nH]c1=O)c1ccccc1 (stereo unspecified)	-4	7	nt	i	nt	nt	-12	3
CC1(OCON)CCCc2ccccc21 (stereo unspecified)	6	-19	-8	i	3	10	0	2
CN(C(=O)c1ccc(NC(=O)Cc2cccc(NC(=O)C3CCCN(C(=O)CCc4ccccc4)C3)c2)cc1)C1CC1 (stereo unspecified)	nt	-9	nt	nt	-12	nt	-1	-8
Cc1cc(C)c(NC(=O)Cn2nnc(C(=O)NCc3ccc4c(c3)OCO4)c2N)c(C)c1	-14	2	-12	i	nt	-1	0	1
O=C(COC(=O)CCN1C(=O)c2cccc([N+](=O)[O-])c2C1=O)NCc1ccccc1	-8	nt	-2	i	17	-3	-1	4
Clc1cccc(N2CCN(CCCN3CCN(c4ccccc4)CC3)CC2)c1	nt	-7	nt	nt	0	nt	10	-8
CCOC(=O)c1[nH]c2c(c1-c1ccccc1)C(=O)CC(c1ccc(OC)c(OC)c1)C2 (stereo unspecified)	-14	-7	0	i	-112	8	-3	-17
CC1=NN(C(=O)CCc2ccccc2)C(c2ccccc2)C1 (stereo unspecified)	-9	nt	5	i	7	10	-4	-1
O=C(NC1CCCCCC1)C(=S)NCc1ccccc1	nt	nt	-2	i	3	-1	1	3
O=C(NCCCCl)C1CC(=O)N(CCc2ccc(F)cc2)C1 (stereo unspecified)	-20	-19	20	i	-35	5	1	4
Cc1ccc(C(=O)CCC(=O)Nc2ccccc2C)c(C)c1	-4	-14	-6	i	6	-1	-1	0
CC(=O)Nc1ccc(C2=NOC(C)(C)C(=O)N2Cc2cccc(C#N)c2)cc1	nt	-10	nt	nt	6	nt	3	2
CC(CNC(=O)C1CCCCC1)NC(=O)C1CCCCC1 (stereo unspecified)	-2	nt	-1	i	-81	-6	1	4
CN(C)[C@@H](CO)c1nnc([C@H](CCC(=O)O)NC(=O)C2CCNCC2)o1	-8	-20	1	i	-4	-2	-3	1
COc1ccc(NC(=O)Nc2ccc(N3CCOCC3)c3nonc23)c(OC)c1	nt	nt	10	i	8	2	24	13
COc1ccc(/C=C(\C#N)C(=O)OCC(=O)Nc2ccc(C(C)(C)C)cc2)cc1	-5	-11	-8	i	nt	7	2	2
Cc1ccc(-n2c(C)cc(C=C(C#N)C#N)c2C)cc1	10	-6	7	i	-36	5	6	-6
CSCCC(NC(=O)c1ccccc1Br)C(=O)NCC(c1ccco1)N1CCCCC1 (stereo unspecified)	nt	nt	nt	i	5	nt	4	5
O=C(Nc1cccc([N+](=O)[O-])c1)Nc1ccc2c(c1)CCC2	-3	-15	2	i	-5	4	0	-17
CC(C)(C)c1cc(NC(=O)COC(=O)c2nccnc2N)n(-c2ccccc2)n1	-5	-13	0	i	42	14	0	2
O=C(Nc1ccc(Cl)cc1)Nc1csc([N+](=O)[O-])c1	36	-4	-9	i	49	6	-14	-41
COc1ccc(-c2cc(-c3ccc(O)cc3)nc(N)c2C#N)cc1	20	6	-17	i	6	-19	11	1
COc1ccccc1N1C(=NC(=O)C2CCCCC2)SC2CS(=O)(=O)CC21 (stereo unspecified)	-4	-13	-8	i	15	-4	4	5
C=CCC(CC(O)COCCC)C(=O)NNC(=S)Nc1ccccc1 (stereo unspecified)	-9	nt	4	i	-9	-11	0	2
CC(C)COC(=O)n1c(SCC(=O)N(C)C)nc2ccccc21	-3	-1	1	i	nt	-2	3	0
Cc1nn2c(N3CCN(c4ccccn4)CC3)cc(C(C)C)nc2c1-c1ccccc1	nt	-19	0	i	5	-6	2	-7
O=[N+]([O-])c1ccc(OCC(O)CNCCNc2nccc(C(F)(F)F)n2)cc1 (stereo unspecified)	-9	-17	-6	i	20	-3	-1	-4
COc1ccc(Cn2c(CCCO)nc3ccccc32)cc1OC	-5	nt	-1	i	nt	4	-3	-2
O=C(NN=C1CCCCCC1)NC1CCCCC1	nt	6	4	i	10	-2	7	7
O=C(C1=C(O)C(=O)N(c2ncccn2)C1c1ccc(F)cc1)c1ccco1 (stereo unspecified)	24	-11	3	i	8	34	-2	6
CN1CCN(C(CC(=O)Nc2cccc(O)c2)C(=O)O)CC1 (stereo unspecified)	-11	nt	9	i	nt	9	nt	nt
CC(C)CCc1noc(CN2CCN(c3ccc(Cl)cn3)CC2)n1	9	-8	-10	i	3	5	-2	1
COc1ccc2nc(SCC(=O)NC3CCCCC3)[nH]c2c1	-5	-16	-5	nt	18	-8	2	-3
O=C(CCc1nc(-c2ccccc2)no1)NCC1CCCO1 (stereo unspecified)	-2	-11	-7	i	nt	6	0	9
OCCC1CN(CC2CCCCC2)CCN1C1CCCC1 (stereo unspecified)	40	-12	8	i	11	-3	-1	0
CN(C)CCCNS(=O)(=O)c1ccc(Oc2ncc(C(F)(F)F)cc2Cl)cc1	17	-4	3	i	3	0	-1	-4
Cc1ccc(S(=O)(=O)N(C)c2ccc(C(=O)NCC(c3ccco3)N3CCCC3)cc2)cc1 (stereo unspecified)	nt	-9	nt	nt	-19	nt	2	0
COc1ccc(NC(=O)c2ccc3c(SCC(=O)O)c4c(nc3c2)CCCC4)c(OC)c1	nt	nt	8	i	4	-12	3	3
CCCOc1ccc(C(=O)Nc2nc(C)c(Cc3ccc4c(c3)OCO4)s2)cc1	49	-13	1	i	-293	0	6	-4
O=C(Cc1c(F)cccc1Cl)OCC(=O)N1CCc2ccccc21	-10	nt	nt	nt	4	nt	3	5
CC(=O)c1ccc(NC(=O)C2C3CCC(C3)C2C(=O)O)cc1 (stereo unspecified)	-13	4	2	i	2	0	-2	1
Cc1ccc(Nc2c(-c3ccccc3O)nc3cnccn23)cc1	-7	nt	-4	i	15	-4	3	0
COC(=O)c1c(C(=O)OC)c(-c2ccc(C)cc2)n2c1CCC2	-1	-9	-2	i	14	-5	-9	-9
C=C(C)CNC(=S)NNC(=O)c1cc(C)oc1C	-24	5	-3	i	6	3	0	3
COc1ccc(Cn2nnnc2C(c2cccs2)N2CCOCC2)cc1 (stereo unspecified)	-2	-1	-1	i	nt	0	6	-5
C=CC[N+](C)(C)C/C(Cl)=C(\Cl)c1ccccc1	-9	-11	-2	i	nt	41	5	8
O=C(NCC1CCCO1)C1CCC(=O)N1Cc1ccc(F)cc1 (stereo unspecified)	-3	-12	-1	i	27	9	-1	2
O=C(COC(=O)Cc1ccsc1)Nc1ccccc1Cl	3	-5	nt	nt	nt	nt	2	0
Cc1ccc(NC(=O)CN(C)C(=O)CSc2nccn2C)cc1	-1	-17	nt	nt	2	nt	2	6
CCc1c(-c2ccccc2)[n+](=O)c2c(n1[O-])CCC2	3	-18	-2	i	19	7	-1	-1
COc1ccc(C(CC(=O)O)NC(=O)c2ccco2)cc1 (stereo unspecified)	2	-1	-9	i	10	-1	8	5
O=C1NC[C@H](Cc2ccccc2)N(C[C@@H]2CCCN2C[C@H](Cc2ccccc2)N2C[C@H](Cc3ccccc3)N(CC3CCCCC3)C(=O)C2=O)C1=O	nt	18	nt	nt	-42	nt	2	-6
O=C1CCC/C=C/C[C@@H](CC(=O)N(CCO)Cc2ccccc2)C(=O)NC[C@@H](c2ccccc2)O1	-14	1	nt	nt	-1	nt	-4	0

Fetched by compound from above:
SMILES	CSC inhib	Yeast UUG start	eIF4H FP inh	Rce1 inh	Env fusion inh	PABP FP inh	MT1-MMP act inh	MT1-MMP act inh RFP
C=CC[N+](C)(C)C/C(Cl)=C(\Cl)c1ccccc1	-9	-11	-2	i	nt	41	5	8
O=C1NC[C@H](Cc2ccccc2)N(C[C@@H]2CCCN2C[C@H](Cc2ccccc2)N2C[C@H](Cc3ccccc3)N(CC3CCCCC3)C(=O)C2=O)C1=O	nt	18	nt	nt	-42	nt	2	-6
COc1ccc(C(CC(=O)O)NC(=O)c2ccco2)cc1 (stereo unspecified)	2	-1	-9	i	10	-1	8	5
Cc1ccc(NC(=O)CN(C)C(=O)CSc2nccn2C)cc1	-1	-17	nt	nt	2	nt	2	6
C=C(C)CNC(=S)NNC(=O)c1cc(C)oc1C	-24	5	-3	i	6	3	0	3
CCc1c(-c2ccccc2)[n+](=O)c2c(n1[O-])CCC2	3	-18	-2	i	19	7	-1	-1

Next part
SMILES	CSC inhib	Yeast UUG start	eIF4H FP inh	Rce1 inh	Env fusion inh	PABP FP inh	MT1-MMP act inh	MT1-MMP act inh RFP
Nc1cccc(CCc2nc3ccccc3[nH]2)c1	11	-14	1	i	nt	0	1	2
Cc1ccc(C)c(NC(=O)CCN2CCC(C)CC2)c1	-4	-16	-2	i	-6	28	2	6
CC(C)c1ccc(N(CC(=O)N/N=C/c2ccc(OC3CSC3)cc2)S(=O)(=O)c2ccccc2)cc1	4	nt	4	i	25	17	-2	-7
COc1ccc2c(c1)CCc1c(C(=O)NCCc3ccc(OC)c(OC)c3)noc1-2	1	-5	-10	nt	59*	17	-2	-5
COc1ccc(COC(=O)c2cc(S(=O)(=O)N3CCCCC3)ccc2N2CCOCC2)cc1	-4	-5	nt	i	-165	nt	-10	-14
COc1ccc2oc(=N)c(C(=O)Nc3ccc(Br)cc3)cc2c1	-12	-3	-6	i	-21	7	8	-6
O=C(CNC(=S)N(Cc1ccccc1)Cc1ccccc1F)NCc1ccccc1	4	nt	-1	i	9	-12	-5	-9
CN(C)/C(CN1CCCCC1)=C1\N=C(c2ccccc2)OC1=O	-13	-8	-2	i	nt	-6	2	4
Cc1ccc(C)c(NC(=O)C2CCCN(S(=O)(=O)c3cccnc3)C2)c1 (stereo unspecified)	5	-11	-10	i	-2	2	4	3
CCOC(=O)C1(Cc2cccc(F)c2)CCN(C(=O)c2cscn2)CC1	-2	-1	-10	i	14	2	1	5
Cc1cccc(C)c1OCC(=O)N/N=C/c1cccn1C	-2	4	5	i	nt	22	0	-6
O=C(NCc1ccc2c(c1)OCO2)C1CCC(=O)N1C1CCCCC1 (stereo unspecified)	-2	4	12	i	-14	9	-2	-2
COc1ccc(S(N)(=O)=O)cc1C(=O)OCC(=O)N1c2ccccc2NC(=O)C1(C)C	-4	-1	nt	nt	nt	nt	-3	2
COc1ccc(NC(=O)C2CCC(CNS(=O)(=O)c3csc(C(N)=O)c3)CC2)cc1OC (stereo unspecified)	-4	-12	4	i	-2	1	-1	-2
Cc1[nH]c2ccc(C(=O)NC3CCCC3)cc2c1C	-9	-9	nt	nt	-21	nt	4	-1
C=CCOC(=O)C1=C(C)NC(=O)NC1c1ccc(N(C)C)cc1 (stereo unspecified)	-11	5	-8	i	-10	-1	2	3
O=c1c(Cc2ccccc2)c(O)ccn1Cc1ccc2c(c1)OCO2	-1	nt	-6	i	-22	-17	-3	-5
COCCNC(=O)c1ccc(N2CC3CC(C2)c2cccc(=O)n2C3)c(NC(=O)c2cc(OC)cc(OC)c2)c1 (stereo unspecified)	3	1	nt	i	-14	nt	-1	3

Screening results: PubChem, several laboratories

Outcome played no part in choosing rows (roughly 3% active in at least one column).
